Screens (PubChem BioAssay)
Biofilm kill mix – mixture kills Candida albicans biofilm cells; actives 0.02% (n = 120,000); C. albicans biofilm persisters + clotrimazole, fluorescence viability; primary screen in compound mixtures of four per well; inhibition, % at 7.6 µM; AID 1242;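 active = inhibition above 30.3% in the primary screen of four-compound pools, then above 30% when the compound was retested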;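 note: compounds exposed to preformed 24 h biofilms for 48 h; the number belongs to the whole pool; some results filed as inactive read as strong as hits; inactives centre near 12; 0% = biofilm with clotrimazole alone and 100% = kill control; retested singly at about 60 µM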
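Assay system: C. albicans biofilms / Medium: RPMI/MOPS medium, pH 7.0 / Schedule: biofilm formation 24 h, compound exposure 48 h, 37 °C / Measured by: Alamar Blue fluorescence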
An asterisk follows results filed as active. These rows are one share of the data (hit frequency here may not be typical).

SMILES	Biofilm kill mix
Cc1ccc(NC(=S)N=Nc2c(O)n(C)c3ccc(S(=O)(=O)N4CCOCC4)cc23)cc1	41
Cn1c(=O)c2c(nc(SCC(=O)NCC3CCCO3)n2Cc2ccc(F)cc2)n(C)c1=O (stereo unspecified)	14
CS(=O)(=O)N(CC(=O)NCc1ccco1)c1cccc([N+](=O)[O-])c1	3
CC(C)NC(=O)[C@@H]1C[C@@]1(C)[C@@H](NC(=O)OCc1ccccc1)c1ccccc1	8
COc1ccc(C(=O)Cc2ccc(F)cc2)c(OC)c1	10
Cc1cccc(NC(=S)N(CCN2CCOCC2)Cc2cc3cc4c(cc3[nH]c2=O)OCO4)c1	4
C/C(=N\NC(=S)NCCc1ccccc1)c1cccs1	5
CC1(OC(=O)CCc2ccccc2)C(=O)C=C2C=C(c3ccc(C#N)cc3)N(CC3CC3)C=C2C1=O (stereo unspecified)	14
C=C(C)C(=O)Nc1cccc(C2=NOC3(C2)C[C@H](C(N)=O)N(C(=O)CC#N)C3)c1 (stereo partly specified)	8
CCCOC(=O)c1c(NC(=O)C2C3C=CC(C3)C2C(=O)O)sc2c1CCC(C)C2 (stereo unspecified)	9
CCCOc1ccc(N2C(=O)CC(NCc3cccnc3)C2=O)cc1 (stereo unspecified)	7
COc1ccc(-c2cc(-c3cccs3)nc(OC)c2C#N)cc1OC	3
Clc1ccc(-c2c[n+](Cc3ccc(Cl)c(Cl)c3)c3n2CCC3)cc1	22
Nc1nc(COc2ccc(Cl)cc2)cs1	-2
O=C(NCC1CC1)NC(=O)c1c(F)cccc1Cl	13
Cc1ccc2nc(N/C(N)=N/S(=O)(=O)c3ccc([N+](=O)[O-])cc3)nc(C)c2c1	8
O=C(Oc1ccc2ccc(OC(=O)N3CCCCCC3)cc2c1)N1CCCCCC1	12
CN(Cc1nc(CCc2ccccc2)no1)Cc1cccs1	12
Cc1ccc(/C=N/NC(=O)c2cccc(S(=O)(=O)N3CCOCC3)c2)o1	4
Cc1nc(-c2ccc(S(=O)(=O)N3CCN(C(c4ccccc4)c4ccccc4)CC3)s2)cs1	23
COc1ccc(/C=N\NC(=O)CCc2c(C)n[nH]c2C)c(OC)c1OC	15
COc1cc([N+](=O)[O-])ccc1NC(=O)NCc1ccco1	5
Cc1cc(Nc2cccc(Cl)n2)n(-c2ccccc2)n1	24
O=C1c2ccccc2C(=O)N1c1ncn[nH]1	14
Nc1ccccc1SCc1csc(-c2ccc(Cl)cc2)n1	19

Molecules from the list above containing a carbonyl joined to an NH by a bond outside any ring:
SMILES	Biofilm kill mix
Cn1c(=O)c2c(nc(SCC(=O)NCC3CCCO3)n2Cc2ccc(F)cc2)n(C)c1=O (stereo unspecified)	14
CS(=O)(=O)N(CC(=O)NCc1ccco1)c1cccc([N+](=O)[O-])c1	3
CC(C)NC(=O)[C@@H]1C[C@@]1(C)[C@@H](NC(=O)OCc1ccccc1)c1ccccc1	8
C=C(C)C(=O)Nc1cccc(C2=NOC3(C2)C[C@H](C(N)=O)N(C(=O)CC#N)C3)c1 (stereo partly specified)	8
CCCOC(=O)c1c(NC(=O)C2C3C=CC(C3)C2C(=O)O)sc2c1CCC(C)C2 (stereo unspecified)	9
O=C(NCC1CC1)NC(=O)c1c(F)cccc1Cl	13
Cc1ccc(/C=N/NC(=O)c2cccc(S(=O)(=O)N3CCOCC3)c2)o1	4
COc1ccc(/C=N\NC(=O)CCc2c(C)n[nH]c2C)c(OC)c1OC	15
COc1cc([N+](=O)[O-])ccc1NC(=O)NCc1ccco1	5

(further entries)
SMILES	Biofilm kill mix
c1ccc(CCCNCC2COc3ccccc3O2)cc1 (stereo unspecified)	-6
Cc1ccccc1CSc1nnc(-c2ccccn2)n1C	16
Cc1cccc(NC(=O)C2CC(=O)NC(Nc3nc4ccccc4s3)=N2)c1 (stereo unspecified)	21
O=C(N/N=C/c1ccc([N+](=O)[O-])o1)c1cccc(S(=O)(=O)N2CCOCC2)c1	12
O=C(COC(=O)c1ccccc1F)Nc1cc(S(=O)(=O)N2CCOCC2)ccc1N1CCCC1	11
O=[N+]([O-])c1ccccc1S(=O)(=O)N1CCN(Cc2cc3c(cc2O)OCO3)CC1	9
COc1ccccc1C(=O)Nc1nnc(-c2ccc(Cl)cc2)o1	10
NC(=O)c1ccc(NC(=O)COc2ccc([N+](=O)[O-])cc2Cl)cc1	13
Cc1ccc(C(=O)CNc2cccc([N+](=O)[O-])c2)cc1	13
C=CCCCCCCCCc1nc(SCC(C)=O)n[nH]1	17
CCOc1ccccc1NC(=S)N1CCCc2ccccc21	6
O=C(COC(=O)c1ccc(O)cc1)Nc1nccs1	1
Cc1nc2c3ccccc3nc(NNC(=O)CCC(=O)NC(C)C)n2n1	16
COc1ccccc1NC1=C(N2CCCCC2)C(=O)c2ccccc2C1=O	21
Cc1nc2ccc(S(=O)(=O)NCC(=O)N(C)Cc3ccccc3)cc2s1	13
CC1CN(C(=O)c2cc([N+](=O)[O-])cc([N+](=O)[O-])c2)CC(C)O1 (stereo unspecified)	2
O=C1NC[C@H](c2ccccc2)N(CCc2cccc3ccccc23)C1=O	8
O=C(Cn1cnc2cc([N+](=O)[O-])ccc2c1=O)NCCc1ccc(F)cc1	1
O=C(O)c1ccccc1SCc1cn2ccccc2n1	5
O=C(c1cn(-c2ccccc2)nc1-c1ccccc1)N1CCN(c2ccccn2)CC1	-4
CCCCNC(=S)Nc1ccc2[nH]c(=O)[nH]c2c1	1
CCN(CC(=O)Nc1ccc(C(=O)OC)cc1)Cc1ccccc1	13
Cc1cccc(NC(=O)C2C3CCC4C(CCC32)C4(Cl)Cl)c1 (stereo unspecified)	7
Cc1ccc(Nc2nc(COC(=O)COc3ccc(C=O)cc3)cs2)cc1	7
CCNC(=O)CC1SC(=Nc2ccc(Cl)cc2)N(CC)C1=O (stereo unspecified)	12
SMILES	Biofilm kill mix
Cc1cc(C)cc(NC(=S)NCc2cccnc2)c1	27
Cn1ncn2c(=O)c3c(nc12)-c1ccccc1CC31CCCC1	16
Cc1ccc(CNC(=O)c2ccc(-n3cccc3)cc2)cc1	4
C/C=C(/C)C(=O)Nc1cccc(C2=NOC3(C2)C[C@H](C(N)=O)N(C(=O)c2ccccc2)C3)c1 (stereo partly specified)	13
COc1ccc(/C=N/NC(=O)CNc2n[nH]c(=O)[nH]c2=O)cc1OC	0
Cc1ccccc1C(=O)NNC(=O)/C=C\C(=O)O	22
S=C(NCCCN1CCOCC1)NC1CC1	17
CC1(C)CC(=O)c2cc(NC(=O)c3ccc(F)cc3)c(=O)oc2C1	7
Nc1ccc(-c2cc(-c3cccc(N)c3)nc(-c3ccccc3)n2)cc1	15
Cc1nc2ncc(Br)cc2[nH]1	17
CCOC(=O)/C(=C/C=C1\Sc2cc(C)c(C)cc2N1CC)C(C)=O	29
O=C(Cc1ccc(Cl)c(Cl)c1)Nc1ccc2[nH]c(=O)[nH]c2c1	15
CC(C)(C)c1ccc(/C=N/NC(=S)Nc2cccnc2)cc1	10
Cn1c(=O)oc2cc(S(=O)(=O)NCc3ccc(C(=O)O)cc3)ccc21	26
COc1cc2c(cc1NCc1ccc3c(c1)OCO3)oc1ccccc12	15
C1CCN(C2CCN(c3nc4nonc4nc3N3CCSCC3)CC2)C1	33
O=C(CNC(=S)N(Cc1ccccc1)Cc1cccnc1)NC1CCCCC1	8
COC(C[C@@H](O)CC(=O)COCc1ccccc1)OC	17
COc1ccc(N(CC(=O)NCc2ccccc2)C(=O)CCC(=O)Nc2cc(C)ccn2)c(OC)c1	22
CC1=C(C(=O)OCC2CCCO2)C(c2ccccc2Cl)NC(=O)N1 (stereo unspecified)	9
Cc1cccc(C(=O)NC2CCN(CC(=O)Nc3ccc4c(c3)OCO4)CC2)c1	17
CC(C)NC(=O)NC(=O)CSc1nnc(C(F)(F)F)n1C	6
O=C(C1=NNCC1c1ccccc1)C1CO1 (stereo unspecified)	-15
CC(C)(C)OC(=O)[C@H](Cc1ccccc1)NC(=O)c1nc[nH]c1C(=O)NC1CCN(C(=O)OC(C)(C)C)CC1	9
COc1cccc(OCCNC(=O)c2cc([N+](=O)[O-])cc([N+](=O)[O-])c2)c1	15

Molecules shown so far with an aryl methoxy group:
SMILES	Biofilm kill mix
COc1ccc(C(=O)Cc2ccc(F)cc2)c(OC)c1	10
COc1ccc(-c2cc(-c3cccs3)nc(OC)c2C#N)cc1OC	3
COc1ccc(/C=N\NC(=O)CCc2c(C)n[nH]c2C)c(OC)c1OC	15
COc1cc([N+](=O)[O-])ccc1NC(=O)NCc1ccco1	5
COc1ccccc1C(=O)Nc1nnc(-c2ccc(Cl)cc2)o1	10
COc1ccccc1NC1=C(N2CCCCC2)C(=O)c2ccccc2C1=O	21
COc1ccc(/C=N/NC(=O)CNc2n[nH]c(=O)[nH]c2=O)cc1OC	0
COc1cc2c(cc1NCc1ccc3c(c1)OCO3)oc1ccccc12	15
COc1ccc(N(CC(=O)NCc2ccccc2)C(=O)CCC(=O)Nc2cc(C)ccn2)c(OC)c1	22
COc1cccc(OCCNC(=O)c2cc([N+](=O)[O-])cc([N+](=O)[O-])c2)c1	15

Further compounds.
SMILES	Biofilm kill mix
Cc1cc(NC(=O)Nc2cccc([N+](=O)[O-])c2)no1	-3
COc1cc(/C=N/Nc2ccccc2[N+](=O)[O-])ccc1OC(=O)c1ccccc1F	13
CN(c1cccc(NS(=O)(=O)c2cccc([N+](=O)[O-])c2)c1)S(C)(=O)=O	14
CC1(C)CC(=O)c2c(Cc3ccccc3)noc2C1	9
O=C(COC(=O)C1(c2ccc(Cl)cc2)CCCC1)Nc1ncc(C(F)(F)F)cc1Cl	21
O=C(c1cc(COc2c(F)cccc2F)on1)N1CCC(c2ccccc2F)C1 (stereo unspecified)	3
Cc1ccc(-n2nc(C)c(/C=N/NC(=O)c3cccnc3)c2Cl)cc1	9
Cc1noc(C)c1CSc1ncnc2sc3c(c12)CCCCC3	4
COc1ccccc1C(=O)COC(=O)c1ccc(N(C)C)cc1	12
Cc1cc(C=O)c(C)n1-c1ccc2c(c1)OCO2	7
Cc1nc2cc(NC(=O)CCS(=O)(=O)c3ccccc3)ccc2s1	13
O=C(NNc1ccc([N+](=O)[O-])cc1)C1CC1c1ccccc1 (stereo unspecified)	12
COc1ccc(S(=O)(=O)Nc2cccc(S(=O)(=O)N3CCCCCC3)c2)cc1	4
CC(=O)Nc1nc2cccc([N+](=O)[O-])c2s1	6
CCCC(=O)N1c2ccccc2C(=C2SC(C(=O)OC)=C(C(=O)OC)S2)C(=S)C1(C)C	9
CN(CCCNC(=O)CSc1cc(=O)n(C)c2ccc(Cl)cc12)Cc1ccccc1	9
Cc1cccc(NC(=S)NCCO)c1C	12
COC(=O)CCC(=O)OC1(C)C(=O)C=C2C=C3CCCN3C=C2C1=O (stereo unspecified)	15
Cc1cccc(-c2ncc(CN3CCCC(CO)(Cc4ccccc4C)C3)cn2)c1 (stereo unspecified)	1
COC(=O)c1sc(NC(=O)CSc2nnnn2-c2cccc(OC)c2)nc1C	10
Cc1nc(CCNC(=O)CC2C(=O)NCCN2Cc2ccoc2)nc2c1CCCC2 (stereo unspecified)	13
COc1ccc(C(=O)N/C(=C\c2cn(C)c3ccccc23)C(=O)OCC(C)C)cc1	15
CCOC(=O)C1(C/C(C)=N/NC(N)=O)CC(C)OC1=O (stereo unspecified)	9
COCc1cc([C@@H]2C[C@H]3CN(c4ccccc4)C(=O)[C@]34CCCN24)ccc1OC	15
COC(=O)CCC(=O)Nc1ccc(N=Nc2ccccc2)cc1	16
SMILES	Biofilm kill mix
CCOC(=O)Nc1ccc2c(CN3CCN(S(=O)(=O)c4ccccc4)CC3)cc(=O)oc2c1	8
COC(=O)c1ccc(OS(=O)(=O)N(C)C)cc1	11
Cc1cc(O)ccc1N/C=C/c1onc(C)c1[N+](=O)[O-]	12
COc1ccc(C2=CC(=O)OC(C)(c3ccccc3)O2)cc1 (stereo unspecified)	11
CN(C)CCCNc1cc(C(C)(C)C)nc2c(-c3ccc(Cl)cc3)cnn12	19
O=C(Cc1ccccc1)Nc1ccc(C(=O)O)cc1	6
O=C(NC(N1CCOCC1)C(Cl)(Cl)Cl)c1ccc(Br)cc1 (stereo unspecified)	10
CC(=O)c1cccc(Nc2cc(C)nc3c(C)cc(C)cc23)c1	16
